Screening results (PubChem)
RanGTP-Imp inh: inhibitors of RanGTP-importin-beta interaction, primary screen, biochemical, FRET, CFP-Ran, YFP-importin-beta, homogeneous; cell-free CFP-Ran/YFP-importin-beta FRET ratio; inhibition, % (test concentration not listed); 300,000 tested, 1.1% active;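 active = most replicates above 15%; inconclusive = exactly half above 15%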;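 note: 0% = DMSO wells and 100% = Ran loaded with GDP instead of GTP; wells of about 40 µL received 100 nL stock; the first replicate is given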
Ecoli rRNA inh: inhibitors of bacterial rRNA selective over humanized ribosomes; E. coli WT GFP vs humanized-ribosome RFP mutants, fluorescence, 24 h; stronger effect = lower value; DMSO median 0, no signal -100; GFP signal change (wild-type ribosome), % (test concentration not listed); 350,000 tested, 1.6% active;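 active = significant combined selectivity score with lowered wild-type GFP, culture density cut under 30%, mutant RFP and density less affected; inactive = any of these conditions unmet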; note: one replicate is shown; some compounds called inactive have numbers as strong as hits
MLL AF4-AF9 inh: blocks AF4 peptide binding to human AF9; AID 651704; 350,000 tested, 0.47% active; AlphaScreen, biotin-AF4 peptide binding to FLAG-AF9; P42568; inhibition, % at 10 µM;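 active = every replicate reaching a set inhibition limit, whatever the replicate mean, cut at about 25% in these data; inconclusive = mean inhibition reaches that limit but some replicates miss it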;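 note: 0% = plate neutral control median and 100% = total signal loss; the record names both 10 and 1 µM as test concentration; the first replicate is given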
Target sequence (P42568 whole entry, looked up): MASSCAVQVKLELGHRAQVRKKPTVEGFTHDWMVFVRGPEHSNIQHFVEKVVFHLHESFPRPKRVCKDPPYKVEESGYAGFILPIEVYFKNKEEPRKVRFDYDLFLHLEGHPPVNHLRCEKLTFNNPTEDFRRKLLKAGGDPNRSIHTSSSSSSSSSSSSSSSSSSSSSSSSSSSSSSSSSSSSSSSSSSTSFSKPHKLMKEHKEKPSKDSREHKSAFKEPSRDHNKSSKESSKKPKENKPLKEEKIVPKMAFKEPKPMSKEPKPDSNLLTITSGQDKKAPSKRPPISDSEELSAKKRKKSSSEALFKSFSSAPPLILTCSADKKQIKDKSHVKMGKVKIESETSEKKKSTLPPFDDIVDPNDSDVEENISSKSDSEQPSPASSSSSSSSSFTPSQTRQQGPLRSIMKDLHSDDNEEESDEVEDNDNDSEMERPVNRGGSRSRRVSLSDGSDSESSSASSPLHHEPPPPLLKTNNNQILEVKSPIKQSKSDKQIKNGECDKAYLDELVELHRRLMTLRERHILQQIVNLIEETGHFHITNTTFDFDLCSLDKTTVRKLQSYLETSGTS
Bfl-1 A1 inh: inhibitors of the anti-apoptotic protein A1, read as caspase activation; MEF A1-2A-BIM cells, Caspase-Glo 3/7 luminescence, 3 h; percent of clofoctol response, vehicle zero; caspase activation, % (test concentration not listed); 330,000 tested, 0.066% active; AID 2462;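 active = over half of replicate activation scores above 10%, or exactly half above 10 with the replicate mean above 10; inconclusive = replicate mean below 10 yet half the replicates above 10; inactive = over half of replicates below 10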;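 note: wells of about 30 µL received 50 nL stock; many hits fall short of the cut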
T cruzi repl: blocks replication of Trypanosoma cruzi. T. cruzi beta-gal in NIH3T3, luminescence, 90 h. inhibition, % (no concentration beside the values). 300,000 tested, 1.4% active. AID 1885;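 active = mean inhibition across valid replicates above about 55%, limit read from the data; inconclusive = mean below that limit but half or more replicates reach it; inactive = mean below it, under half of replicates reach it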;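 note: signal also drops with host cell toxicity which is not excluded here; 0% = plate median of DMSO wells and 100% = zero luminescence signal; higher percent means less beta-gal luminescence so fewer parasites; stock transfer was 50 nL into about 50 µL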
Calb FLC: C. albicans growth modulation with fluconazole; C. albicans CaCi-2 (fluconazole-resistant clinical isolate) + fluconazole, Alamar Blue growth, 48 h; growth inhibition, % (concentration not given with the values); 300,000 tested, 0.57% active; AID 1979;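 active = most replicates above 75%; inconclusive = exactly half above 75%; inactive = most below 75%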;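 note: all wells also contain fluconazole at 8 µg/ml as a sub-toxic cotreatment; 0% = median of DMSO wells and 100% = median of geldanamycin control wells; wells of about 8 µL received 7.5 nL stock; the first replicate is given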
Beta cell apopt: blocks beta cell apoptosis. INS-1E cytokine-induced death, ATP luminescence, 48 h; percent of positive-control rescue, neutral wells zero. protection from apoptosis, % (concentration not given with the values). 300,000 tested, 0.8% active. AID 435005;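 active = all replicates at 75% or more, or half of them and the mean; inconclusive = half reach 75% but not the mean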;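 note: 0% = cytokine-treated negative control wells and 100% = positive control rescue; higher means more ATP so stronger rescue from cytokine killing; wells of about 40 µL received 100 nL stock; the first replicate is given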
Vif TR-FRET: HIV-1 Vif–A3G interaction blockers – biochemical, TR-FRET, GST-Vif 1-94, biotin-A3G peptide, dose response retest, primary screen (AID 1117319) | inhibition, %; hits with a dose series show IC50 in µM | 260,000 tested, 0.57% active | TR-FRET GST-Vif / biotin-A3G peptide binding; higher % means a stronger effect; test concentration not given here; strong numbers were not always called active;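 active = above the screen mean plus three standard deviations and confirmed in dose response; inconclusive = results disagree or hit not tested in dose response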;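 note: Vif residues 1-94 fused to GST binding biotinylated APOBEC3G peptide 110-148; 0% = full assay without inhibitor and 100% = GST in place of GST-Vif; retest series ran down from 100 µM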
Ecoli rRNA inh OD600: recorded beside Ecoli rRNA inh, whose call it bears; OD600 change, %; measured here: OD600 growth;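 optical density of the mix in the first replicate; 0 = DMSO median and -100 = no signal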
Ecoli rRNA inh RFP: recorded beside Ecoli rRNA inh, whose call it bears; RFP signal change, %; measured here: RFP humanized mutant strains;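 first replicate; 0 = DMSO median and -100 = no signal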
The depositor's hits bear a star; ? = inconclusive; . = no result given. A portion of the library, so the mix of outcomes need not match the whole.

compound	RanGTP-Imp inh	Ecoli rRNA inh	Ecoli rRNA inh OD600	Ecoli rRNA inh RFP	MLL AF4-AF9 inh	Bfl-1 A1 inh	T cruzi repl	Calb FLC	Beta cell apopt	Vif TR-FRET
O=C(Nc1ccc(F)cc1)c1ccc2snnc2c1	1.1	0	2	-0.3	-1.0	-1.2	-2	-11	6	.
O=c1cc(N2CCOCC2)[nH]c(=O)n1-c1ccc(Cl)cc1	11	14	12	0.7	-9.1	-0.3	0	-7	-7	0%
O=C(COC(=O)C1CCC1)c1c[nH]c2ccccc12	3.0	2	9	-0.9	1.7	-0.1	0	3	-5	.
Cc1ccc(C)c(OCc2nc(-c3cccnc3)no2)c1	8.3	.	.	.	.	-0.5	6	28	.	?
Cc1ccc(C)c(NC(=S)/C(=C(\[O-])c2ccc(OC(F)F)cc2)[n+]2ccccc2)c1	2.0	15	22	1.1	-1.2	0.9	-10	-10	.	7%
COc1ccc(-c2nc(NC(=O)Cn3c(=O)oc4ccccc43)sc2C)cc1	1.8	-8	-12	-3.1	0.3	1.1	13	-15	4	.
O=C(CNS(=O)(=O)c1ccccc1)NNC(=O)C(Cl)Cl	3.2	11	17	3.4	-2.0	-0.3	-1	-3	-9	.
O=C(NCCc1ccc(F)cc1)C1CCN(C(=O)Nc2ccccc2)CC1	.	6	12	2.3	-8.6	0.7	.	.	-3	-14%
CCN(CC)c1ncnc2c1cnn2Cc1ccc(Cl)cc1	2.2	-49	-46	2.6	-0.1	3.3	4	3	5	3%
O=C(O)C1(c2ccccc2)CCC(Nc2ccccc2)C1 (stereo not given)	-5.4	1	-3	7.6	-1.2	0.7	3	4	2	.
Nc1cccc(S(=O)(=O)Nc2ccccc2)c1	?	13	7	5.6	-0.2	2.9	-7	-11	-4	18%
CCNC(=O)N1CCNC(=O)C1CC(=O)OC (stereo not given)	4.0	.	.	.	.	0.1	-7	-9	.	-5%
Cc1cc(Nc2ccccc2)n(-c2ccccc2)n1	-1.1	.	.	.	.	1.4	8	-2	-3	-6%
COc1ccccc1CN1CC(C(=O)NCCn2nc(C)cc2C)CCC1=O (stereo not given)	-1.2	11	6	0.8	-1.0	-0.2	-10	-11	-1	.
CCCOC(=O)c1ccc(NC(=O)c2cc(Cl)ccc2OC)cc1	2.7	14	26	-3.3	-5.7	-0.8	13	10	5	15%
CCN(CC)C(=O)Cn1c(=O)n(Cc2ccccc2Cl)c2c1c(=O)n(C)c(=O)n2C	2.4	.	.	.	.	0.1	2	-12	2	-1%
CCOC(=O)Cc1nc2ccccc2o1	4.9	.	.	.	.	-0.7	-5	-7	-3	.
COc1ccc(-c2ccc(OC)c([C@H]3[C@H]4C=CC[C@@H](C)[C@@H]4C(=O)N3Cc3ccccc3)c2)cc1	3.1	17	21	-0.8	1.5	-0.3	51	-9	9	.
COc1ccccc1C(=O)N1CCCN(C(=O)c2ccccc2OC)CC1	1.8	.	.	.	.	-0.7	-7	15	-3	0%
NC(=O)c1ccccc1NC(=O)CCCN1C(=O)CCC1=O	-2.2	.	.	.	.	0.6	-10	-6	-6	5%
COc1ccc(NC(=O)CN(C)S(=O)(=O)c2ccc3[nH]c(=O)oc3c2)cc1	-0.3	-2	-2	-1.5	-1.2	-0.9	5	25	-5	.
CC(=O)N1c2ccc(S(=O)(=O)N3CCCCC3)cc2CC1C(=O)NCc1cccc(Cl)c1 (stereo not given)	-0.2	8	9	-6.2	-15	1.1	-5	-6	.	.
CCOc1ccc(NC(=O)CSc2nnc(-c3ccccc3)n2N)cc1	-1.1	.	.	.	.	0.1	15	-2	-1	0%
COc1ccc(/C=N/N=C/c2ccc(OC)c(O)c2)cc1O	1.1	.	.	.	.	-0.8	0	-7	0	-4%
Fc1ccc(-n2cc(CNCCc3ccncc3)c(-c3ccccc3Cl)n2)cc1	-1.9	-15	-16	4.6	-1.2	0.8	13	-34	-1	.
CCN(CC)c1ccc(/C=N/n2c(C)nc3ccccc3c2=O)cc1	4.1	-13	-15	3.4	10	1.6	13	-9	1	-4%
C#CCn1c(=NC(=O)c2ccc(Br)s2)sc2cc(NC(C)=O)ccc21	2.5	.	.	.	.	-0.7	6	-2	2	0%
COc1ccc(CNC(=O)C2CCCN(S(=O)(=O)c3ccc(-n4cnnn4)cc3)C2)cc1 (stereo not given)	-6.8	10	17	0.6	-1.2	1.0	-8	-7	-1	-3%
O=C(CCc1ccc(O)c(O)c1)N/N=C/c1ccc2c(c1)OCO2	4.3	-2	1	0.0	0.9	0.5	-5	22	1	31%
CC(Oc1ccc(Cl)cc1Cl)C(=O)N(C)c1ccccc1 (stereo not given)	1.5	-26	-36	-6.5	0.9	-0.5	0	3	-4	2%

Later entries:
compound	RanGTP-Imp inh	Ecoli rRNA inh	Ecoli rRNA inh OD600	Ecoli rRNA inh RFP	MLL AF4-AF9 inh	Bfl-1 A1 inh	T cruzi repl	Calb FLC	Beta cell apopt	Vif TR-FRET
COC(=O)[C@]1(CC(C)C)N[C@H](c2ccc(-c3ccc(F)cc3)c(OC)c2)[C@@H]2C(=O)N(C)C(=O)[C@@H]21	-3.2	4	-4	19	2.0	0.5	10	31	.	.
Cc1cc(C)n2nc(CC(=O)NC3CCCCCCC3)nc2n1	?	.	.	.	-0.7	0.4	2	0	-3	5%
COc1cccc(/C=N/NC(=O)c2[nH]c(C)c(C(=O)N/N=C/c3cccc(OC)c3O)c2C)c1O	3.1	.	.	.	.	-0.3	-13	-3	37	14%
Cc1nc(N)c(C#N)c(-c2ccc3c(c2)OCO3)c1C	-3.9	3	4	-1.1	1.7	0.7	-7	-6	6	-5%
COc1cccc(OC)c1C(=O)Nc1cc(Cl)ccc1N1CCOCC1	-4.3	.	.	.	.	-0.3	-11	15	4	64%
CN1C(=O)[C@H]2[C@@H](/C=C/c3ccccc3)N3C(=O)CN(Cc4ccccn4)C(=O)[C@@]3(C)[C@H]2C1=O	4.4	10	7	-3.4	-19	0.6	-2	-19	3	.
COc1cccc(C(=O)Nc2cc(C(=O)NCc3ccc(C)cc3)ccc2N2CCC3(CC2)CC(c2ccccc2)=NO3)c1	6.7	23	17	-2.4	-4.5	0.3	13	-13	1	.
COC(=O)c1ccccc1C(=O)N1CCC(CCC(=O)NC2CC2)CC1	-0.1	7	-2	-1.0	-1.4	0.0	-6	-2	-1	0%
COc1ccc(Cl)cc1S(=O)(=O)Nc1noc2ccccc12	16*	-4	-9	-4.2	-5.0	-0.7	-3	-3	4	3%
c1ccc(CN2CCOCCOCCOCC2)cc1	-0.4	18	6	3.1	.	0.8	-15	6	-3	.
O=C(O)COc1c(-c2ccc(Cl)cc2)oc2ccccc2c1=O	2.2	-21	-34	-13	-0.4	1.1	10	-3	-1	-2%
Cc1c(CNC(=O)c2nn3c(c2Cl)NC(c2ccccc2)CC3C(F)(F)F)cnn1C (stereo not given)	-1.3	.	.	.	.	1.5	-23	-15	.	5%
Cc1ccc(C)c(Cn2c(C(=O)OC(C)C)cc3c2ccn3C)c1	?	.	.	.	.	-0.9	14	3	5	?
COc1ccc(OC)c(NC(=O)[C@H]2CC=CC[C@H]2C(=O)O)c1	5.9	.	.	.	.	0.9	-23	-14	-2	6%
N#CC(C#N)C(c1ccsc1)c1c(-c2ccccc2)[nH][nH]c1=O (stereo not given)	-3.8	.	.	.	.	0.5	-11	1	-4	-1%
c1ccc2c(c1)CCCN2Cc1nnnn1C1CCCC1	-4.4	.	.	.	.	0.9	9	-13	-13	4%
COc1ccc(Cl)cc1NC(=S)NC1CCCC1	?	1	-13	-12	-1.1	-0.3	-29	-72	.	.
CN(CC(=O)Nc1ccc(Cl)c(C(F)(F)F)c1)Cc1cc(=O)n2ccsc2n1	-1.3	3	8	11	-3.9	0.3	-3	-3	-2	5%
COc1ccc(Nc2nc(S(=O)(=O)c3ccc(C)cc3)c(Cl)s2)cc1	2.3	-43	-67	-8.4	2.9	0.5	11	31	21	7%
CSCCC(NC(=O)c1ccc([N+](=O)[O-])cc1Cl)C(=O)OCC(=O)NCC(F)(F)F (stereo not given)	7.9	7	7	6.1	-0.2	0.9	-23	5	-2	-5%
CCCCNC(=O)c1ccc(-n2c(=S)[nH]c3ccccc3c2=O)cc1	1.9	3	8	0.1	0.2	1.3	-5	4	7	-15%
NC(=NC1CCCCC1)NS(=O)(=O)c1ccccc1	3.5	2	3	-0.7	0.1	-0.5	-3	-3	3	-5%
CSCCC(NC(=O)c1ccc([N+](=O)[O-])cc1Cl)C(=O)OCC(=O)NCCCc1ccccc1 (stereo not given)	-0.3	.	.	.	4.2	0.6	12	-2	-2	-8%
CC(NCC1COc2ccccc2O1)C1COc2ccccc2O1 (stereo not given)	7.6	-1	-16	2.2	-1.2	-0.3	-1	-10	-7	-4%
O=C(CN1C(=O)c2ccccc2S1(=O)=O)N1CCN(Cc2ccc3c(c2)OCO3)CC1	-0.4	.	.	.	.	3.0	-4	0	-4	-1%
COCCCN1C(=O)C(=O)/C(=C(/O)c2ccc(S(=O)(=O)N3CCCCC3)cc2)C1c1ccc(OC)cc1 (stereo not given)	3.6	6	10	-0.4	-2.2	-1.0	-4	3	2	-1%
COc1cccc(Nc2n[nH]c(=S)s2)c1	2.2	-5	0	0.4	0.8	-0.5	-13	5	0	29%
Cc1noc(C)c1COc1ccc(CC(=O)NCc2ccccc2)cc1	3.0	1	5	0.4	-2.0	0.1	-50	-14	22	.
CCn1c(SCC(=O)NC(C)(C)C)nc(O)cc1=O	5.6	.	.	.	.	0.7	9	3	-11	8%
CC1CCN(c2cc(N(C)CCO)c([N+](=O)[O-])c3nonc23)CC1	7.1	-6	-14	9.0	1.5	0.9	7	7	3	0%

New compounds follow.
compound	RanGTP-Imp inh	Ecoli rRNA inh	Ecoli rRNA inh OD600	Ecoli rRNA inh RFP	MLL AF4-AF9 inh	Bfl-1 A1 inh	T cruzi repl	Calb FLC	Beta cell apopt	Vif TR-FRET
CCOC(=O)C(NCCc1ccccc1F)(NC(C)=O)C(F)(F)F (stereo not given)	1.2	4	19	-2.4	1.1	0.0	-5	-5	-9	5%
CCCCC(CC)CNC(=O)CN(C)S(=O)(=O)c1cccc2nsnc12 (stereo not given)	-3.8	.	.	.	.	0.7	7	11	3	18%
Cc1ccccc1CN1CCCC(C(=O)N2CCCCC2)C1 (stereo not given)	2.0	15	9	-0.3	-11	1.1	8	-4	0	-7%
O=C1CSC(c2ccccc2F)N1c1ccccc1F (stereo not given)	-8.7	2	2	0.6	-0.6	-0.6	-8	0	-10	-3%
C=CCOc1ccc(C2OC34CCCCC3C(C#N)(C#N)C2(C#N)C(=N)O4)cc1 (stereo not given)	46*	.	.	.	.	-0.9	3	2	-10	?
